LANA-nucl inh – LANA-nucleosome interaction inhibition | FITC-LANA1-23 / chicken nucleosome fluorescence polarization; active compounds read low | z-score (test concentration not listed) | 51,000 compounds, 0.3% hits;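 active = both repeat wells score below -2 in polarization z-score versus plate sample wells, excluding overly bright wells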;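 also: 100 nL library stock added to about 30 µL; numbers are from one replicate; some results filed as inactive read as strong as hits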
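Test system: purified chicken nucleosomes with FITC-labelled LANA N-terminal peptide (1-23); Input: 240 nM purified chicken nucleosomes (480 nM peptide binding sites), final; Medium: TEN-BT buffer, pH 7.5; Timing: 10–45 min, room temperature; Technique: fluorescence polarization, 480 nm excitation, 535 nm parallel and perpendicular emission; Replication: duplicates.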
BasE inh – blocks the Acinetobacter baumannii siderophore enzyme BasE | purified BasE, fluorescence polarization binding displacement | inhibition, % (concentration not given with the values) | 84,000 compounds, 0.1% hits;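 active = both replicates above 25% with normal brightness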;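 also: 0% = negative plate control signal and 100% = positive plate control signal; stock transfer was 100 nL into about 30 µL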
Starred values were filed as active, the others as inactive; · = no result given; & = joins results of further samples. These rows are one share of the data; the hit share may differ from the screen's.

A first look, five compounds:
Every second line gives: LANA-nucl inh, BasE inh
- CN1C(=O)c2ccc(NC(=O)/C=C/c3ccc(Br)o3)cc2C1=O
 : ·, 1.0
- NC(=O)c1c(NC(=O)CN2CCCC2)sc2c1CCCC2
 : -0.013, 0.5
- CC(NC(=S)NC1CCCCC1)c1ccncc1 (stereo not given)
 : 0.18, -3.2
- CC1=CC(C)C(C2OCCC(C)O2)C(C)C1 (stereo not given)
 : 1, 2.5
- COc1ccc(/C=C/C(=O)NCCCN2CCCC2)cc1
 : 0.11, -2.4

Results (from the top)
Every second line gives: LANA-nucl inh, BasE inh
- CN1C(=O)c2ccc(NC(=O)/C=C/c3ccc(Br)o3)cc2C1=O
 : ·, 1.0
- NC(=O)c1c(NC(=O)CN2CCCC2)sc2c1CCCC2
 : -0.013, 0.5
- CC(NC(=S)NC1CCCCC1)c1ccncc1 (stereo not given)
 : 0.18, -3.2
- CC1=CC(C)C(C2OCCC(C)O2)C(C)C1 (stereo not given)
 : 1, 2.5
- COc1ccc(/C=C/C(=O)NCCCN2CCCC2)cc1
 : 0.11, -2.4
- O=c1c(NCCc2ccccc2)nccn1-c1ccccc1
 : 0.27, 0.1
- N#CC1(C#N)C(C(=O)C23CC4CC(CC(C4)C2)C3)C12CCOCC2 (stereo not given)
 : -0.39, 0.9
- Cc1ccc(-c2cc(C(F)F)nc(N(C)Cc3ccccc3)n2)cc1
 : -0.9, 1.6
- CN(C(=O)CSc1nnc2ccccn12)c1ccccc1
 : ·, 2.5
- Cc1csc2sc(-c3ccnc(SCc4ccccc4)n3)c(C)c12
 : ·, 0.3
- CCCCS(=O)(=O)Nc1ccccc1OCC
 : -1.3, 1.0
- COCC(=O)N1CCN(c2ccc(F)cc2)CC1
 : 0.12, 0.5
- COC(=O)[C@@H]1[C@H]2C[C@H]3c4[nH]c5ccccc5c4CCN3C[C@@H]2CC[C@@H]1O
 : -0.48&0.042&0.56, 0.9&-1.4
- COc1cccc(N=Nc2ccc3cccnc3c2O)c1
 : ·, -0.8
- Cc1nnc(NC(=O)C2CC(=O)N(c3ccc(C)c(Cl)c3)C2)s1 (stereo not given)
 : 3.1, -3.7
- CCOC(=O)c1ccc(N(C)S(=O)(=O)c2ccc(OC)cc2)cc1
 : -0.29, 0.4
- CN1/C(=C(\C#N)c2nc(C#N)c(C#N)nc2Cl)Nc2ccccc21
 : ·, 3.8
- Cc1[nH]c(=O)c(C#N)c(C)c1CCC(=O)N1CCCSC1=Nc1ccccc1C(C)C
 : ·, -1.1
- CCN(CC)Cc1c(O)ccc2cc(-c3nc4ccccc4s3)c(=O)oc12
 : ·, 8.2
- CCOc1cccc(C(=O)N2CCOCC2)c1
 : -0.78, 1.8
- OCCN1CCN(CC/C=C2/c3ccccc3Sc3ccc(C(F)(F)F)cc32)CC1
 : -0.14, -2.2
- Nc1c(Br)cc(Br)c2cccnc12
 : -0.37, 0.0
- CN(C)S(=O)(=O)c1ccc(SCC(=O)NC(C)(C)C)nc1
 : ·, -1.4
- Cc1ccsc1C=NCCc1ccc(S(N)(=O)=O)cc1
 : ·, -0.4
- COc1cc2[nH]c(=O)n(CCCC(=O)N3CCN(c4ccc(Cl)cc4)CC3)c(=O)c2cc1OC
 : -0.86, 0.7
- O=C(C1COc2ccccc2O1)N1CCCC1 (stereo not given)
 : 0.49, 0.5
- O/C(=C\Sc1nnc(Cc2ccccc2)o1)c1ccc(F)cc1
 : ·, 1.4
- O=C1c2nc3cc(-c4ccccc4)[nH]n3c(=O)c2CN1Cc1ccccc1
 : ·, -0.1
- CCCOC(=O)C1=C(C)N(CC)C(=O)NC1c1ccccc1Cl (stereo not given)
 : ·, 1.8
- N#C/C(=C\c1ccc(-c2ccccc2)o1)c1ccccc1
 : 2.3, -34

6 entries already listed, sorted by the value under LANA-nucl inh, high to low.
compound	LANA-nucl inh
CC1=CC(C)C(C2OCCC(C)O2)C(C)C1 (stereo not given)	1
O=C(C1COc2ccccc2O1)N1CCCC1 (stereo not given)	0.49
CC(NC(=S)NC1CCCCC1)c1ccncc1 (stereo not given)	0.18
OCCN1CCN(CC/C=C2/c3ccccc3Sc3ccc(C(F)(F)F)cc32)CC1	-0.14
CCOc1cccc(C(=O)N2CCOCC2)c1	-0.78
COc1cc2[nH]c(=O)n(CCCC(=O)N3CCN(c4ccc(Cl)cc4)CC3)c(=O)c2cc1OC	-0.86

(continued)
Every second line gives: LANA-nucl inh, BasE inh
- O=c1nc(N2CCOCC2)nc(N2CCOCC2)[nH]1
 : -0.98, 4.9
- CCCCOc1cccc2c1CCN(Cc1ccccc1)C2=O
 : -0.92, -0.7
- CCC(Sc1nnc(COc2ccccc2)n1C)C(=O)Nc1ccccc1 (stereo not given)
 : 0.078, -0.8
- O=C(O)CC1CCCC(c2ccccc2)C1=O (stereo not given)
 : -1.5, -0.3
- Cc1cccc(CCNCc2cc3cc4c(cc3[nH]c2=O)OCO4)c1
 : -0.27, 1.3
- Cc1occc1-c1nnc(SCc2nn[nH]n2)n1-c1ccccc1
 : -0.41, 0.8
- Nc1ccccc1NC1=CC(=O)CC(c2ccccc2)C1 (stereo not given)
 : ·, -0.4
- Oc1cc(Cc2nc3ccccc3s2)c(O)cc1Cc1nc2ccccc2s1
 : ·, -0.2
- Cc1nn(CC(C)C)c(Cl)c1C(=O)N1CCc2ccccc2C1
 : ·, 0.4
- COc1cc(OC)cc(C(=O)N/C(N)=N\c2nc3ccccc3s2)c1
 : ·, 4.4
- CC(C)(C)NC(=S)N1CCn2cccc2C1c1ccc(F)cc1 (stereo not given)
 : 0.11, 1.5
- c1ccc(CN2CCN(Cc3ccccc3)C2c2ccccc2)cc1
 : -0.21, -3.4
- CSc1cc(-c2ccc(F)cc2)nn1S(=O)(=O)c1cccc(C(F)(F)F)c1
 : ·, 1.0
- COC(=O)C1CC2CCC1C2 (stereo not given)
 : ·, -0.9
- c1ccc2c(c1)nc(N1CCOCC1)n1cc(N3CCCC3)nc21
 : ·, 2.0
- Cc1ccccc1N1C(S)=C(C#N)C(=O)NC1c1ccco1 (stereo not given)
 : 1.4, 2.4
- CCOC(=O)C1=C(C)NC(C)=C(C(=O)OCC)C1C(=O)OCC(=O)NC1CCCCCC1
 : ·, 0.0
- CC(=O)N1CCOc2ccc(S(=O)(=O)Nc3cc(C(F)(F)F)cc(C(F)(F)F)c3)cc21
 : 0.34, 1.5
- Cc1oc(C(C)(C)C)cc1-c1cc(N)n(-c2ccc(I)cc2)n1
 : ·, 0.5
- CC(O/N=C/c1ccccc1OC(F)F)C(=O)NC1CCCC1 (stereo not given)
 : ·, 0.1
- CCCCS(=O)(=O)Nc1cc(C(=O)OC)cc(C(=O)OC)c1
 : 0.77, 2.4
- O=C(Nc1ccc(O)cc1)C(=O)c1c(O)[nH]c2ccccc12
 : ·, 6.8
- Cc1[nH]c2ccccc2c1C(=O)C(C)OC(=O)c1cccc(N(C)C)c1 (stereo not given)
 : ·, 1.4
- CN1C2CCC1CC(NC(=O)CS(=O)(=O)c1ccc(F)cc1)C2 (stereo not given)
 : 1.1, ·
- c1ccc2c(c1)ncc1cccn12
 : 0.75, 5.7
- COc1ccc(C2CC(c3ccccc3)n3ncnc3N2C(=O)C2CC2)cc1 (stereo not given)
 : -0.036, 1.6
- CN(O)/C=C1\C(=O)Nc2ccccc21
 : 0.32, ·
- COC(=O)C1=C(CN2CCC(C)CC2)NC(=O)NC1c1ccc(OC)cc1 (stereo not given)
 : -0.35, -0.9
- Nc1ncnc2sc3c(c12)CCCC3
 : 0.034, 0.2
- OC(COCc1ccccc1)CN1CCN(c2ccccc2)CC1 (stereo not given)
 : ·, -0.7

The listing continues.
SMILES,LANA-nucl inh,BasE inh
O=c1c2ccccc2nnn1CN1CCN(S(=O)(=O)c2cccs2)CC1,·,2.0
CCOC(=O)c1ccc2c(c1)sc1nc(-c3cccc(OC)c3)cn12,-1.2,-0.7
O=C(CSc1ccccn1)Nc1ncccn1,-0.76,6.4
Cc1ccc(C)c(S(=O)(=O)c2nnn3c2nc(N2CCC(C(N)=O)CC2)c2sccc23)c1,-1.1,-3.0
COc1ccc(C(=O)Cc2cc3ccccc3oc2=O)c(OC)c1,·,2.4
COC(=O)C(N=Cc1ccccc1)c1ccccc1 (stereo not given),-0.84,·
CC(C)(C)c1ccc(C2NC(=O)c3ccccc3N2)cc1 (stereo not given),·,1.8
O=S(=O)(c1ccc(F)cc1)N1CCCN(c2nccc(C(F)(F)F)n2)CC1,·,1.6
Cc1cc(C(=O)COc2ccc(Cl)cc2)c(C)n1-c1ccon1,·,-1.1
O=C(CCc1ccccc1)NCc1ccc2c(c1)OCO2,0.027,1.6
O=C(c1ccc(NC(=S)NCc2ccco2)cc1)N1CCCCC1,0.52,1.1
CC(=O)N1CC(=O)N=C1SCC(=O)Nc1ccc(S(N)(=O)=O)cc1,·,-0.8
Cc1ccc(NC(=O)C2(N3CCN(c4ccccc4)CC3)CCCCC2)cc1,0.53,-2.2
CC(C)[N+]1(C)C2CC[C@@H]1CC(OC(=O)C(CO)c1ccccc1)C2 (stereo not given in full),-0.035&1.1,-2.5
O=S(=O)(Nc1ccccn1)N1CCCCCC1,-0.79,0.7
COc1c(N2CCNC(C)C2)c(F)cc2c(=O)c(C(=O)O)cn(C3CC3)c12 (stereo not given),0.63&0.16&0.034,2.3
COc1ccc2cc3cc(C(=O)NCCc4ccc(OC)c(OC)c4)oc3nc2c1,-0.63,-0.2
CCOC(=O)Cc1csc(NC(NC(=O)CC)(C(F)(F)F)C(F)(F)F)n1,0.17,3.8
COc1ccc(-c2noc(CN3CCCCC3)n2)cc1OC,2.7,-5.2
N#C/C(=C\c1cn(CCOc2ccccc2)c2ccccc12)C(=O)N1CCCC1,-0.9,0.1
C=CCn1c(SCc2cccc(C#N)c2)nnc1C12CC3CC(CC(C3)C1)C2,-1,9.0
CN1CC(=O)Nc2ccccc2C1=O,0.98,0.7
Cn1nc(CC(=O)Nc2nn[nH]n2)c2ccccc2c1=O,0.56,-2.4
CN1C(=O)/C(=C/c2ccccc2Cl)Sc2ccc(C(=O)N3CCN(C(=O)c4ccco4)CC3)cc21,0.008,11
Cc1[nH]ccc(=O)c1OCc1ccccc1,0.21,·
Cc1nc2ccccc2c(=O)o1,·,2.2
Cc1cc(C(=O)O)c(C)n1-c1cc(C(F)(F)F)cc(C(F)(F)F)c1,·,-1.4
CCC(CC)c1nc2ccccc2n1C,·,-0.6
O=C(NCCc1ccccc1)C1CCCN(S(=O)(=O)c2ccc3[nH]c(=O)oc3c2)C1 (stereo not given),-0.14,1.3
NS(=O)(=O)c1ccc(CCNC(=O)c2ccc(S(=O)(=O)N3CCCCC3)cc2)cc1,·,-1.7
CCOC(=O)c1oc2cc(N)ccc2c1C,0.53,-1.2
CCCOc1ccc(C(=O)Nc2ccc3c(c2)Cc2ccccc2-3)cc1,·,1.1
Cc1ccc(C(=O)CN(Cc2ccccc2)Cc2ccccc2)cc1,0.31,·
CC1CCCN(C(=O)CSc2ncnc3ccccc23)C1 (stereo not given),·,1.4
CCN(CC(=O)NCc1cccs1)C(=O)c1ccc(C)s1,·,-0.7
CC(C)(C)SC(=O)c1cccnc1SCCS(=O)(=O)c1cccc(C(F)(F)F)c1,·,7.4
Cc1ccc(-n2cnnn2)cc1S(=O)(=O)NC(C)(C)C,-0.76,-0.3
Cc1ccc(OCC(O)CN2C(=O)c3ccccc3C2=O)cc1 (stereo not given),1.3,-1.3
CC1(C)C(=O)Nc2ccccc2N1C(=O)Cn1cnc2sccc2c1=O,·,-1.4
Oc1ccc(-c2ccccc2)c(F)c1,0.52,·
CC(C)c1ccc(OCc2ccc(C(=O)OCCN3CCCCC3)o2)cc1,-0.65,-3.5
Cc1csc(C(C#N)C(=O)CSc2nncn2-c2ccccc2)n1 (stereo not given),·,2.2
CN(C)c1cccc(C(=O)N2N=C(C(F)F)CC2(O)C(F)F)c1 (stereo not given),-0.22,0.9
Nc1ccc(Oc2ccc3c(c2)C(=O)N(CCO)C3=O)cc1,-0.28,4.0
Cc1cc(C(=O)OC(C)C(=O)Nc2ccc(Oc3ccccc3)cc2)c(C)o1 (stereo not given),·,1.7
CC(SCC(=O)NC1CCCCCC1)c1nc2ccccc2c(=O)[nH]1 (stereo not given),·,1.2
CCOC(=O)c1nc2c3c4c(sc3ncn2n1)COC(C)(C)C4,2.1,-4.4
Cc1ccc(-n2c(C)c(C)c(C#N)c2N)cc1,·,6.8
COC(=O)c1ccc(C(C)N(C)C)o1 (stereo not given),0.052,3.0
COC(=O)c1ccc(COc2c(I)cc(Cl)c3cccnc23)o1,·,2.4
COc1c(Br)csc1C(=O)NN,-0.14,4.9
CCc1ccc(N=Cc2c(O)[nH]c(=S)[nH]c2=O)cc1,·,1.9
COc1ccc(NC(=O)CC2C(=O)OCC3CCCCN32)cc1OC (stereo not given),·,-1.9
CC12CC[C@H](CC1=O)C2(C)C,0.34&-0.56,2.0
O=C(Cc1ccccc1)Nc1cccnc1,-0.34,2.0
COc1cc(OC)cc(C(=O)N[C@H](C(=O)Nc2c(C)n(C)n(-c3ccccc3)c2=O)C(C)C)c1,·,1.7
O=C(NCc1ccccc1)c1cccnc1N1CCCC1,1.9,-0.9
Cc1cc(C(=O)N(C)c2c(N)n(Cc3ccccc3)c(=O)[nH]c2=O)c(C)o1,·,-0.6
Cn1c(=O)c2c(nc(CN3CCN(CCO)CC3)n2CCCc2ccccc2)n(C)c1=O,-0.35,0.0
CC(C)N(C(=O)c1ccc(-c2ccccc2F)cc1)C(C)C,·,2.2
C#CCNCc1ccco1,-0.068,-1.4
O=C(OCC(=O)N1CCCCC1)c1cc2ccccc2oc1=O,·,-0.1
Cc1ccc(S(=O)(=O)NC2CCOC(C)(C)C2)cc1 (stereo not given),·,2.8

A section from the list above:
SMILES,LANA-nucl inh,BasE inh
O=C(OCC(=O)N1CCCCC1)c1cc2ccccc2oc1=O,·,-0.1
Cc1ccc(S(=O)(=O)NC2CCOC(C)(C)C2)cc1 (stereo not given),·,2.8

High-throughput results deposited in PubChem by ICCB-Longwood Screening Facility, Harvard Medical School.
